PV pol inh: poliovirus RdRp elongation inhibitors, primary screen, biochemical, fluorescence polarization, total intensity. poliovirus polymerase elongation; active compounds read low. % elongation, % (compound at 16.7 µg/mL). Genome polyprotein (Poliovirus type 1 (strain Mahoney)), P03300. AID 588519, 2011. actives 0.66% (n = 150,000); in the data active = % elongation below about 90%; note: some results filed as inactive read as strong as hits
Target sequence (P03300 1749-2209 limits assumed): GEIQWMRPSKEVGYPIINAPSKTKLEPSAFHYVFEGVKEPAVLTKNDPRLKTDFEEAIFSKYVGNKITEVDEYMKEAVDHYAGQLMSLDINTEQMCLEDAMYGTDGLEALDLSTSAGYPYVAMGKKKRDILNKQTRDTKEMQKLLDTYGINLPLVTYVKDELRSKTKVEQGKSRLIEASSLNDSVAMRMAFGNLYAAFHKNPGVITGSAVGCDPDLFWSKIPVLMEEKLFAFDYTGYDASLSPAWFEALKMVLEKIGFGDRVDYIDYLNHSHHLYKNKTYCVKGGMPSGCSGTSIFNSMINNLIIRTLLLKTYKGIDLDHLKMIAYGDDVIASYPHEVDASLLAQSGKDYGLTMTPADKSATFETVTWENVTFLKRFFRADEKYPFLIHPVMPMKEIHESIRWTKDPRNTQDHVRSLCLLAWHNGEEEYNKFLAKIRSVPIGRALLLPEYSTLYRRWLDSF
MenB inh: M. tuberculosis MenB inhibitors, primary screen, biochemical, absorbance | MenB enzyme assay, absorbance read-out; some hits fall short of the stated cut | inhibition, %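 (about 12 µg/mL by stock and volumes)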 | actives 0.43% (n = 100,000);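 active = mean of two replicates above 30%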;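 note: 0% = no compound and 100% = wells with inactive enzyme; the first replicate is given; strong numbers were not always called active; inactives centre near -10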
Target sequence (P9WNP5 whole entry, looked up): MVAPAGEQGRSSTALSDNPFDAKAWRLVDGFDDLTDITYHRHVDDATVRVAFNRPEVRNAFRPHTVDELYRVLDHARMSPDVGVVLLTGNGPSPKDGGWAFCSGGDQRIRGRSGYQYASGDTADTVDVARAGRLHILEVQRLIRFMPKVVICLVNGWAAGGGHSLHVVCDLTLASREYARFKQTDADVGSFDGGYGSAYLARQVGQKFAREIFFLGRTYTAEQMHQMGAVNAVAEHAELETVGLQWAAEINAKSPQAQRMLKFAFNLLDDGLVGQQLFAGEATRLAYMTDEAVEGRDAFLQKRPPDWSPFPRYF
Mtb MbtI inh: MbtI salicylate synthase inhibitors, primary screen, biochemical, fluorescence intensity. purified MbtI enzyme, fluorescence intensity read-out. inhibition, %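 (about 17 µg/mL by stock and volumes)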. actives 0.89% (n = 100,000). AID 493033, 2011;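 active = above 50% in both replicates, above 80% if mildly self-fluorescent; inactive = the rest, strongly fluorescent compounds included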;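 note: 0% = mean of negative and 100% = mean of positive controls; one replicate is shown; some compounds called inactive have numbers as strong as hits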
PV pol inh intensity: also measured in PV pol inh; calls as there; % elongation; measured here: total intensity read-out; formula for this scale not given here;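 total fluorescence in place of polarization; lower means less elongation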
Starred values were filed as active, the others as inactive; . = no result given; & = joins results of further samples. Compounds were not picked by outcome. About 1.8% of those tested had a hit in this group.

SMILES	PV pol inh	PV pol inh intensity	MenB inh	Mtb MbtI inh
Nc1nc(SCCO)[nH]c(=O)c1NC(=O)c1ccccc1F	103	103	-7	-3
O=C(O)C1C2C=CC(O2)C1C(=O)NCCCn1ccnc1 (stereo not drawn)	105	102	-8	-8
Cn1c2ccccc2c2cc(C#N)c3nc(=O)c4ccccc4n3c21	45	247	1	-6
O=C1CCCc2cc(S(=O)(=O)N3CCCc4ccccc43)ccc2N1	100	102	-12	14
O=C(O)c1[nH]n(-c2ccccc2)c(=O)c1/C=C1\C=Nc2ccccc21	104	105	-146	9
C=CCn1c(COc2ccc(CC)cc2)nnc1SCn1nnc2ccccc2c1=O	99	85	-28	7
O=C(NCC1COc2ccccc2O1)Nc1csc2ccccc12 (stereo not drawn)	108	113	-18	-3
COc1cc2c(cc1OC)C(=O)CC(C)(C)O2	107	106	8	-32
O=C(Cc1nc(-c2cnccn2)no1)N/N=C/c1ccccc1	104	97	-7	17
N#C/C(=C\c1ccco1)C(N)=S	92	87	-214	42
COc1ccc(OC)c(NC(=O)CS)c1	100	102	-137	98*
CCOc1ccc2c(O)c(C3=Nc4ccccc4C3=O)sc2c1	101	100	25	2
COc1ccc(CC(=O)NCc2ccccc2)cc1	99	99	-21	-17
COc1cc(/C=N/OCC(=O)NCC2CCCO2)ccc1OC(F)F (stereo not drawn)	103	102	-9	19
Fc1ccccc1-c1csc(-n2nccc2C(F)(F)F)n1	103	110	-14	-19
Cc1ccc(SCC(=O)O)cc1	104	105	.	-9
CSc1cccc(NC(=O)N2CCN3CCCCC3C2)c1 (stereo not drawn)	104	102	-3	-11
Cc1ccc(C2=NNC(C(O)C(O)C(O)C(O)CO)S2)cc1 (stereo not drawn)	102	100	-21	-19
CCC(=O)N/C(N)=N\c1nc(C)c2ccccc2n1	103	109	-9	8
NCc1n[nH]c(=S)n1CCc1ccccc1	98	102	-86	6
COC(=O)CSc1nc2ccc(C)cc2[nH]1	108	110	-8	14
CS(=O)(=O)c1ccc(-c2cccc(NC(=O)Cc3cccs3)c2)nn1	100	101	11	1
Cc1oc(NC(=O)C(F)(F)F)c(C#N)c1C	93	108	-201	5
N#C/C(C(=O)N1CCCCC1)=C(/S)Nc1ccccc1	99	101	-17	71*

Filtered by structure, those above with a halogen (4)
SMILES	PV pol inh	PV pol inh intensity	MenB inh	Mtb MbtI inh
Nc1nc(SCCO)[nH]c(=O)c1NC(=O)c1ccccc1F	103	103	-7	-3
COc1cc(/C=N/OCC(=O)NCC2CCCO2)ccc1OC(F)F (stereo not drawn)	103	102	-9	19
Fc1ccccc1-c1csc(-n2nccc2C(F)(F)F)n1	103	110	-14	-19
Cc1oc(NC(=O)C(F)(F)F)c(C#N)c1C	93	108	-201	5

Remaining list, next part:
SMILES	PV pol inh	PV pol inh intensity	MenB inh	Mtb MbtI inh
CC1(C)CC(=O)C2=C(C1)NC(=O)C21C(C#N)=C(N)Oc2ccccc21 (stereo not drawn)	106	101	-76	-7
Cc1ccc(/C=C/C(=O)NCC2CCN(C(=O)/C=C/c3ccc(C)o3)CC2)o1	99	105	-4	89*
COc1ccccc1N1CCN(CCC(=O)O)CC1	104	99	-56	-8
Cc1cc(=O)oc2cc(OCC(O)Cn3cnc4ccccc43)ccc12 (stereo not drawn)	104	100	-11	90
COc1ccc(Cl)cc1N(C(C)C(=O)O)S(C)(=O)=O (stereo not drawn)	101	99	-12	-16
NC(=O)C1=C(N)SC2C(=O)N(c3ccc4ccccc4c3)C(=O)C2C1c1ccccc1O (stereo not drawn)	109	120	-23	-1
Cc1cc(NS(=O)(=O)c2ccc(N3C(=O)c4ccccc4C3=O)cc2)no1	99	105	5	17
COC(=O)C1=C(C)NC(SCC(=O)C23CC4CC(CC(C4)C2)C3)=C(C#N)C1c1cccs1 (stereo not drawn)	106	109	-7	.
Cc1noc(C)c1Cn1nc(C(=O)O)c2ccccc2c1=O	100	88	-25	-6
C/C(Cn1cc[n+](C)c1)=N/O	102	103	-13	5
CCC(=O)N(c1nnc(SCCN2C(=O)c3ccccc3S2(=O)=O)s1)C1CC1	102	109	-5	-13
O=C(CSc1ccccc1)Nc1ccc(F)cc1	104	105	-7	.
O=C(CN1C(=O)COc2ccccc21)N(Cc1nc2ccccc2c(=O)[nH]1)CC1CCCO1 (stereo not drawn)	108	113	-12	-11
CCCN(CCC)C(=O)Cn1ncc2c(=O)oc3ccc(C)cc3c21	103	105	-24	-10
S=C(c1ccncc1)N1CCOCC1	99	102	-1	-4
COc1cccc(CNCCCN2CCOCC2)c1OCc1ccc(C)cc1	99	103	-16	-11
CCOC(=O)C1CCC(CNCc2ccccc2C)CC1 (stereo not drawn)	104	106	-16	4
Cc1nn(-c2ccc(Cl)cc2)c2sc(C(=O)NC3=NCCS3)cc12	101	97	10	113
COc1ccc(C2(c3ccc(OC)cc3)NC(=O)N(Cn3nnc4ccccc4c3=O)C2=O)cc1	108	110	-14	-2
CCc1ccc(C(=O)NCc2cccs2)s1	101	104	-2	-13
Cc1ccc(N2C(=O)C3CNC4(C(=O)Nc5ccc(Br)cc54)C3C2=O)cc1 (stereo not drawn)	.	.	-10	-4
CC1CC(C)CN(c2nnc(NC(=O)c3csc4c3CCCC4)s2)C1 (stereo not drawn)	101	102	14	3
O=c1c(O)cccc2cc(O)c(O)c(O)c12	100	98	2	12
O=C1CC(CSc2nnc(-c3ccc(Cl)cc3)n2-c2ccccc2)=NN1	105	104	9	-23
COc1ccc(-n2c(-c3ccc(Cl)cc3)cnc2SCc2nccn2C)cc1	.	.	-19	8
O=C(O)CC1(O)c2ccccc2C(=O)N1Cc1ccccc1 (stereo not drawn)	90*	84*	-37	.
CC#C[C@]1(O)CC[C@H]2[C@@H]3CCC4=CC(=O)CCC4=C3[C@@H](c3ccc(N(C)C)cc3)C[C@@]21C	103	99	-5	-5
CC1CCCCN1C(=O)c1ccccc1NS(=O)(=O)c1ccc2ccccc2c1 (stereo not drawn)	104	105	-13	.
COc1ccc(N2CCN(/C=C3\C(=O)N(c4ccc(C)cc4)C(=O)c4ccccc43)CC2)cc1	97	97	-23	52
O=C(COc1ccc(F)cc1)N(c1ccccn1)C1CCCCC1	99	98	-5	-4
COc1ccc(-c2cc(C(=O)N3CCN(C)CC3)no2)cc1	101	103	4	12
CNc1nc(Nc2ccc(OC(F)(F)F)cc2)nc(OCC(F)(F)F)n1	104	111	-26	.
CCOC(=O)c1c(C)n(C)c2ccc(OCC)cc12	105	110	-26	.
CCN(CC)S(=O)(=O)c1cccc(-c2nnc(SCC#N)n2Cc2ccccc2)c1	104	108	4	-1
O=C(CCSc1ccccc1)Nc1ccc(S(=O)(=O)NCc2ccco2)cc1	.	.	-13	0
CCNC(=S)N1CCC(C(=O)c2ccc(Cl)cc2)CC1	105	103	-3	-8
CN(C)c1cc(-c2ccccc2)oc(=O)c1Cl	102	91	5	2
CCC(=O)Oc1ccc(/C=C/c2ccccc2)cc1OC	106	108	-4	.
Cc1ccc(NC(=O)N(CCC(=O)O)Cc2ccccc2)cc1	99	105	25	-10
Brc1ccc2c(c1)C1CC(c3ccccc3)=NN1C(c1ccco1)O2 (stereo not drawn)	108	118	-32	-71
O=C1C=C2C3CCN(CC3)C2CC1 (stereo not drawn)	103	103	-14	-22
Cn1c(=O)cc(OCCCC(=O)O)c2ccccc21	99	100	12	18
COc1cc(OC)cc(C(=O)Nc2cc(C)nn2-c2ccccc2)c1	102	104	.	-6
COc1ccc(C(C#N)N2N=C(C)CC2c2ccccc2)cc1 (stereo not drawn)	104	109	-5	.
CC1CCCCN1C(=O)C1CCCN(S(=O)(=O)c2ccccc2)C1 (stereo not drawn)	103	103	-48	-9
O=C(CSc1ccccn1)NC(=O)c1ccccc1	101	106	-7	.
CCC#CCN(c1ccccc1)c1ccccc1	103	102	-25	-3
Cn1nc(C(=O)N2CCN(S(=O)(=O)c3ccccc3)CC2)c2ccccc2c1=O	104	102	-2	-2
CC(=O)NN=C1CCC(=NNC(C)=O)CC1	101	105	-32	-19
CCCNC(=O)CSc1nc(-c2ccccc2)cc(C(F)(F)F)n1	101	101	-9	6
CCN(CC)c1ccc(N=Cc2ccc(O)cc2)cc1	106	105	6	2
COc1cc(/C=N/n2cc(-c3ccccc3)[nH]c2=S)cc(OC)c1OC(C)=O	108	109	-56	35
O=S(=O)(c1ccc2nc3c(nc2c1)-c1cccc2cccc-3c12)N1CCOCC1	107	107	-10	-10
Cc1cccc(C(C)C)c1NC(=O)COC(=O)Cc1ccsc1	102	97	.	-2
O=C(CCS(=O)(=O)c1ccc(Cl)cc1)OCc1ccccc1	100	98	.	-9
COc1ccc2nc(NC(=O)c3ccccc3C)sc2c1	101	99	.	61
COC(=O)c1ccc(CSc2nnc(SCc3ccc(C(=O)OC)o3)s2)o1	103	104	-24	25
Cc1cccc(OCCCC(=O)N2CCCCCC2)c1C	100	104	-3	-8
C=CCSc1nnc(-c2ccc(C)cc2)o1	104	105	-4	1
Cn1cc2c(n1)-c1cc(Cl)ccc1SC2	102	98	-21	27

More compounds
SMILES	PV pol inh	PV pol inh intensity	MenB inh	Mtb MbtI inh
CCN(CC)S(=O)(=O)c1ccc(NC2c3ccccc3C(=O)N2Cc2ccccc2)cc1 (stereo not drawn)	103	105	-29	-12
Cc1ccccc1NS(=O)(=O)c1cc(-c2onc(C)c2C)ccc1C	102	102	-33	10
CSc1sc(C(=O)Nc2cccc(Cl)c2)c(-c2cccs2)c1C#N	107	103	-44	-16
O=C(OCCOc1ccccc1)c1cc2c(s1)CCC2	96	108	-2	31
Cc1cc(Cl)ccc1OCCCC(N)=O	103	101	3	0
CNC(=O)C1OC(C)(C(C)(C)C)OC1C(=O)NC (stereo not drawn)	103	109	-6	4
CCN(CC)CCOC(=O)C(c1ccccc1)C1CCCCC1 (stereo not drawn)	101&102	100&100	-7&0	-3&-6
FC(F)(F)c1cccc(-n2c(-c3ccco3)n[nH]c2=S)c1	101	100	-18	32
COc1ccc(CNC(=O)NC(C)(C)C)cc1	102	100	11	14
CCc1ccc(C(=O)/C=C/Nc2ccc(C)cc2O)cc1	103	101	-40	14
CC(C)CC1=NC(C(F)(F)F)(C(F)(F)F)N=C(N2CCCCC2)O1	103	104	-2	-14
CC1CCN(C(=O)COC(=O)CCN2C(=O)S/C(=C\c3cccs3)C2=O)CC1	101	100	-26	-2
C=CCNc1c2c(nc3cc(-c4cc(OC)cc(OC)c4)nn13)CCC2	102	103	8	-82
CC(C)(C)OC(=O)N1CC=C2C(C#N)=C(N)C(C#N)(C#N)C(c3ccc4c(c3)OCO4)C2C1 (stereo not drawn)	104	121	25	-5
CC(=O)N1CCN(C(=O)c2cc(C)nc3ccccc23)CC1	99	101	-5	0
COc1ccc(OCCBr)cc1	104	105	.	-3
Cc1ccccc1N1CC(C(=O)Nc2ccc(S(N)(=O)=O)cc2)CC1=O (stereo not drawn)	103	99	-46	-7
COc1ccc(N(C(=O)c2ccccc2OC(C)=O)C(C)C2CC2)cc1 (stereo not drawn)	104	107	-4	-7
Cc1ccccc1NC(=O)Nc1ccc(-n2ncnn2)cc1	101	103	-31	-37
O=C(CCN1C(=O)C2C3C=CC(C3)C2C1=O)N1CCCCC1 (stereo not drawn)	103	103	-3	-16
CC(c1ccccc1)N1CCn2c(nc3cc(NC(=O)c4cccc(Br)c4)ccc32)C1 (stereo not drawn)	101	102	-9	5
CCOC(=O)c1ccc(SC)cc1OC	106	107	-18	.
Nc1ccc(-c2cn3ccccc3n2)cc1	97	101	3	.
COc1ccc(/C=N/S(=O)(=O)c2ccccc2)cc1OC	103	100	-3	.

An excerpt from above in order of count of non-hydrogen atoms, ascending:
SMILES	PV pol inh	PV pol inh intensity	MenB inh	Mtb MbtI inh
S=C(c1ccncc1)N1CCOCC1	99	102	-1	-4
COc1ccc(CC(=O)NCc2ccccc2)cc1	99	99	-21	-17
O=C(OCCOc1ccccc1)c1cc2c(s1)CCC2	96	108	-2	31
COc1ccc(-c2cc(C(=O)N3CCN(C)CC3)no2)cc1	101	103	4	12
Brc1ccc2c(c1)C1CC(c3ccccc3)=NN1C(c1ccco1)O2 (stereo not drawn)	108	118	-32	-71
CC(C)(C)OC(=O)N1CC=C2C(C#N)=C(N)C(C#N)(C#N)C(c3ccc4c(c3)OCO4)C2C1 (stereo not drawn)	104	121	25	-5

Full records as entered above. Order of screens: PV pol inh	PV pol inh intensity	MenB inh	Mtb MbtI inh
Cn1c(=O)cc(OCCCC(=O)O)c2ccccc21 is listed with 99	100	12	18
COC(=O)C1=C(C)NC(SCC(=O)C23CC4CC(CC(C4)C2)C3)=C(C#N)C1c1cccs1 (stereo not drawn) is listed with 106	109	-7	.

Following part
SMILES	PV pol inh	PV pol inh intensity	MenB inh	Mtb MbtI inh
COc1ccc(-c2cc(C(=O)N(C)c3ccccc3)no2)cc1	102	104	-8	-3
CCOc1ccc(C(NC(=O)c2ccco2)NC(=O)c2ccco2)cc1OC	100	101	-12	-2
CN(C(=O)c1ccc2c(Cl)c3c(nc2c1)CCC3)c1ccccc1Cl	100	104	-6	-1
Cc1nc2ccccc2c(C)c1CC(=O)N1CCN(c2ccc(O)cc2)CC1	108	112	-5	24
CCn1c(CSc2ncccn2)nc2cc(C(=O)O)ccc21	86	105	-23	8
Cc1sc2ncnc(N(C)C3CCCCC3)c2c1C	101	108	-22	2
Cc1nn(C(=O)CCC(=O)N2CCc3ccccc32)c2ccccc12	103	102	16	3
Cc1ccc2ncc(C(=O)N3c4ccccc4CC3C)c(=O)n2c1 (stereo not drawn)	102	107	-15	11

Screening data from PubChem.
